# ALR H2O2 inh: blocks human ALR sulfhydryl oxidase activity. purified ALR, DTT oxidation, H2O2 HRP-luminol luminescence. inhibition, % (no concentration beside the values). 3.8% of 290,000 active;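 active = mean and each replicate at 75% or more; inconclusive = only one of the two met; inactive = neither met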;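 note: stock transfer was 7.5 nL into about 7.5 µL; 0% = neutral wells and 100% = wells with inactivated enzyme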
# B2AR ag: agonists of human beta-2 adrenergic receptor inducing internalization | P07550 | Am2.2-beta2AR cells, FAP receptor internalization, flow cytometry; reference of the scale not given here | response, % (concentration not given with the values) | 0.43% of 340,000 active;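 active = response above a set limit, near 3 SD of response in nonfluorescent compounds, cut at about 42% in these data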;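 note: stock transfer was 100 nL into about 11 µL; a reference agonist was the positive control; negative values mostly stem from fluorescent compounds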
# T cruzi repl: blocks replication of Trypanosoma cruzi. 1.4% of 300,000 active. inhibition, % (no concentration beside the values). T. cruzi beta-gal in NIH3T3, luminescence, 90 h. AID 1885;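 active = mean inhibition across valid replicates above about 55%, limit read from the data; inconclusive = mean below that limit but half or more replicates reach it; inactive = mean below it, under half of replicates reach it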;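 note: signal also drops with host cell toxicity which is not excluded here; 0% = plate median of DMSO wells and 100% = zero luminescence signal; higher percent means less beta-gal luminescence so fewer parasites; stock transfer was 50 nL into about 50 µL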
# Calb FLC: C. albicans growth modulation with fluconazole; C. albicans CaCi-2 (fluconazole-resistant clinical isolate) + fluconazole, Alamar Blue growth, 48 h; AID 1979; growth inhibition, % (no concentration beside the values); 0.57% of 300,000 active;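 active = most replicates above 75%; inconclusive = exactly half above 75%; inactive = most below 75%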;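 note: all wells also contain fluconazole at 8 µg/ml as a sub-toxic cotreatment; 0% = median of DMSO wells and 100% = median of geldanamycin control wells; wells of about 8 µL received 7.5 nL stock; the first replicate is given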
# Ecoli rRNA inh: inhibitors of bacterial rRNA selective over humanized ribosomes | E. coli WT GFP vs humanized-ribosome RFP mutants, fluorescence, 24 h; stronger effect = lower value; DMSO median 0, no signal -100 | GFP signal change (wild-type ribosome), % (test concentration not listed) | 1.6% of 350,000 active;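 active = significant combined selectivity score with lowered wild-type GFP, culture density cut under 30%, mutant RFP and density less affected; inactive = any of these conditions unmet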; note: one replicate is shown; some compounds called inactive have numbers as strong as hits
# Beta apoptosis: blocks beta cell apoptosis; INS-1E cytokine-induced death, ATP luminescence, 48 h; percent of positive-control rescue, neutral wells zero; protection from apoptosis, % (test concentration not listed); 0.8% of 300,000 active; AID 435005;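 active = all replicates at 75% or more, or half of them and the mean; inconclusive = half reach 75% but not the mean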;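 note: 0% = cytokine-treated negative control wells and 100% = positive control rescue; higher means more ATP so stronger rescue from cytokine killing; wells of about 40 µL received 100 nL stock; the first replicate is given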
# LANA-H2A inh: blocks KSHV LANA binding to histone H2A/H2B | Q9QR71 | cell-free LANA-H2A/H2B peptide, fluorescence polarization | inhibition, % (test concentration not listed) | 0.6% of 320,000 active | AID 2629; in the data active = inhibition mostly above about 10%, no sharp cut-off; inactive = mostly below about 6.7%;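 note: stock transfer was 7.5 nL into about 10 µL; 0% = median of vehicle wells and 100% = median of positive control wells; one replicate is shown; the record names a cut of 25% in any replicate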
# Target sequence (Q9QR71 whole entry, looked up): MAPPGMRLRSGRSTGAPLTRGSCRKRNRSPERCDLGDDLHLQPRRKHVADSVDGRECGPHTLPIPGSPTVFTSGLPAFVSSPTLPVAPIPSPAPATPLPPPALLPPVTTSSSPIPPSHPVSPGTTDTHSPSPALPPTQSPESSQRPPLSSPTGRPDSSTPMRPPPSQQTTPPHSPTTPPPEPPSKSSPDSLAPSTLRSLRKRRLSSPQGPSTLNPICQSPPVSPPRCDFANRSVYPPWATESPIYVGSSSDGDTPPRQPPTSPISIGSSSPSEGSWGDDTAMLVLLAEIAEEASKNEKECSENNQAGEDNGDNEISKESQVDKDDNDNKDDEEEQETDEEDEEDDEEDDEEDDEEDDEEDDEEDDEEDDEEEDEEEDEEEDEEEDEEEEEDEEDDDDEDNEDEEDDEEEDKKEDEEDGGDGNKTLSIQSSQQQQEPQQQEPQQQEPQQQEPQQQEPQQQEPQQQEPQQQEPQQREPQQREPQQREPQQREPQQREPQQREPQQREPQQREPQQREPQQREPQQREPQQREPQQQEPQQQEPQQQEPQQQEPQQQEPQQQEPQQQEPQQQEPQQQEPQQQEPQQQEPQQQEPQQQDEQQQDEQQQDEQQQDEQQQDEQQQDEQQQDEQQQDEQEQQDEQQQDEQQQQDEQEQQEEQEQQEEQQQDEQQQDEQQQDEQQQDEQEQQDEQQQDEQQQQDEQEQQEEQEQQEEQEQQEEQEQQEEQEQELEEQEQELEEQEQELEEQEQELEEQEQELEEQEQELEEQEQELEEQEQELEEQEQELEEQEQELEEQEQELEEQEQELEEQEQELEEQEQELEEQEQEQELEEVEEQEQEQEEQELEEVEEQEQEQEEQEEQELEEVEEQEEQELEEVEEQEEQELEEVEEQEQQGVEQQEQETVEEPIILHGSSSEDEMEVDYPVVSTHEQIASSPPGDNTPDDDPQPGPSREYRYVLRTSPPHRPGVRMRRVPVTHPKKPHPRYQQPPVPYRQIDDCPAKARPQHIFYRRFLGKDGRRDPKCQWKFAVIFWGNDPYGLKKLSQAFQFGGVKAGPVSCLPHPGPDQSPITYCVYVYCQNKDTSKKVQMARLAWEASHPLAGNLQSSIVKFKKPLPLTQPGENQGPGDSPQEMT
# Bfl-1 A1 inh: inhibitors of the anti-apoptotic protein A1, read as caspase activation | MEF A1-2A-BIM cells, Caspase-Glo 3/7 luminescence, 3 h; percent of clofoctol response, vehicle zero | caspase activation, % (test concentration not listed) | 0.066% of 330,000 active | AID 2462;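 active = over half of replicate activation scores above 10%, or exactly half above 10 with the replicate mean above 10; inconclusive = replicate mean below 10 yet half the replicates above 10; inactive = over half of replicates below 10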;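 note: wells of about 30 µL received 50 nL stock; many hits fall short of the cut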
# Ecoli rRNA inh OD600: also measured in Ecoli rRNA inh; calls as there; OD600 change, %; measured here: OD600 growth;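 optical density of the mix in the first replicate; 0 = DMSO median and -100 = no signal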
# Ecoli rRNA inh RFP: recorded beside Ecoli rRNA inh, whose call it bears; RFP signal change, %; measured here: RFP humanized mutant strains;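 first replicate; 0 = DMSO median and -100 = no signal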
# Numbers without * were called inactive; ? = inconclusive; . = not tested or not shown. These rows are one share of the data; count on the stated rates, not on these rows.
SMILES,ALR H2O2 inh,B2AR ag,T cruzi repl,Calb FLC,Ecoli rRNA inh,Ecoli rRNA inh OD600,Ecoli rRNA inh RFP,Beta apoptosis,LANA-H2A inh,Bfl-1 A1 inh
COc1ccc(Nc2oc(-c3ccccc3F)nc2C#N)cc1,-5,6,0,29,.,.,.,-3,-1.6,0.1
COc1ccc(N2CCN(C3CC(=O)N(Cc4ccc(N5CCCC5=O)cc4)C3=O)CC2)cc1 (stereo unspecified),.,-3,-9,-10,.,.,.,-4,-3.0,0.5
Cn1c(SCC(=O)N2CCc3ccccc32)nc2cccnc21,-18,-6,-4,-1,.,.,.,-4,1.5,-0.4
CCCOc1cc(C)c(Cl)cc1S(=O)(=O)N(CC)CC,1,4,12,-3,.,.,.,-21,3.0,-0.8
CNC(=O)c1ccc(-c2ccccc2)s1,16,-1,.,-9,.,.,.,1,2.2,?
COc1ccc(OCC(O)CNS(=O)(=O)c2ccc(NC(C)=O)cc2)cc1 (stereo unspecified),-1,-7,7,-8,11,5,2.2,0,-1.5,0.3
Cc1ccc(OCC(=O)N2CC3(C)CC2CC(C)(C)C3)cc1 (stereo unspecified),-2,-5,-7,2,.,.,.,0,-0.1,0.2
CSc1ccccc1NC(=O)c1ccccc1N(C)S(C)(=O)=O,0,-4,3,2,.,.,.,-2,-0.3,1.5
COc1ccc(NC(=O)Nc2ccccn2)cc1OC,-41,1,7,-1,-8,-7,-0.5,5,3.4,-0.6
CC(C)Oc1ccc(C2C(C(=O)c3ccco3)=C(O)C(=O)N2Cc2cccnc2)cc1 (stereo unspecified),-1,4,-13,30,.,.,.,-5,0.9,-1.0
Cc1ccc(S(=O)(=O)N2CCN(C(=O)c3ccc(Br)o3)CC2)c(C)c1,1,0,13,19,-11,-16,3.4,0,-1.3,-1.2
O=C(N/N=C/c1cccnc1)c1ccccc1OCc1cccc(Br)c1,-6,4,20,?,8,5,-4.2,-1,-2.9,-0.2
CC(C)Oc1ccccc1/C=N/NC(=O)c1ccc(F)cc1,-27,-14,-9,-13,.,.,.,-11,-5.3,-2.5
CC(C)C(NC(=O)CSc1ccc(Cl)cc1)C(C)C,-12,0,-3,-2,9,2,3.5,-8,-4.2,0.0
O=S(=O)(Nc1ccc(Oc2ncccn2)c(Cl)c1)c1ccc(F)cc1,-2,1,-23,0,.,.,.,2,4.9,-0.4
COc1ccc(OC)c(-c2nc(C(N)=O)c3[nH]c(=O)n(-c4ccc(F)cc4)c3n2)c1,-18,-6,-6,-7,12,18,-1.5,-6,2.0,0.9
Cc1ccc(NC(=O)CCc2ccccc2)cc1S(=O)(=O)N1CCOCC1,-1,-5,.,.,-4,-25,-7.9,2,12,1.9
COc1ccc(-c2c(NCCc3ccccc3)c(=O)c2=O)cc1,-9,-1,6,-6,7,5,1.6,-7,-3.0,-0.8
O=C(Nc1ccc2c(c1)Cc1ccccc1-2)c1ccccc1F,31,2,-5,2,3,15,1.0,1,2.4,-2.1
O=c1oc2ccccc2n1CCCCCn1c(=O)oc2ccccc21,-4,-3,3,-2,.,.,.,5,-6.1,-0.8
O=C(CSc1ccc2nnc(-c3ccc(F)cc3)n2n1)N1CCOCC1,.,1,-3,-3,-5,-5,-2.3,-4,0.6,0.0
CC1CCCN(c2nc(N(C)c3ccccc3)nc(N)c2[N+](=O)[O-])C1 (stereo unspecified),-5,4,28,-3,-17*,1.4*,1.6*,0,-5.9,-0.2
Cc1c(NS(=O)(=O)c2ccc3c(c2)Cc2ccccc2-3)c(=O)n(-c2ccccc2)n1C,-4,5,18,-11,-12,-27,1.6,-3,5.1,-0.4
C/C(=N\NC(=S)NC1CCCCC1)c1ccc(Cl)c(Cl)c1,-4,-11,25,-2,4,-1,-3.5,-4,-1.8,0.5
CCOC(=O)C1CCCN(C(=O)Cn2cnc3sc(C)c(S(=O)(=O)N4CCOCC4)c3c2=O)C1 (stereo unspecified),.,5,6,-1,18,17,4.4,9,-2.1,-0.3
C=CCN1C(=O)C(CC(=O)O)SC1=Nc1c(C)n(C)n(-c2ccccc2)c1=O (stereo unspecified),2,1,0,1,.,.,.,-4,3.1,0.6
CCn1c(SCC(=O)Nc2ccccc2N2CCOCC2)nnc1-c1ccccc1,.,-10,7,1,.,.,.,-1,3.0,0.4
CSc1ccccc1NC(=O)C1=COCCO1,4,-1,-1,0,9,2,2.9,.,1.4,1.8
CSCCC(NS(=O)(=O)c1ccc(C)cc1)C(=O)N1CCN(C(c2ccccc2)c2ccccc2)CC1 (stereo unspecified),-20,-3,52,5,12,15,0.5,6,2.0,0.4
COc1ccc(CN(CC(=O)NCCc2ccccc2)C(=O)CCC(=O)Nc2ccccn2)cc1,-9,0,7,-2,0,10,1.3,-4,2.9,-0.2
COc1ccc(OCC(=O)NNC(=O)c2ccccc2OCc2c(C)noc2C)cc1,1,5,13,0,7,6,3.7,.,-0.1,0.2
Cc1cc(=O)[nH]c(SCC(=O)N2CCCc3ccccc32)n1,-32,-5,-4,10,1,6,6.3,3,5.2,0.6
O=c1cc(-c2ccc([N+](=O)[O-])cc2)c2cc3c(cc2[nH]1)OCCO3,-19,-3,-3,-2,7,0,0.6,16,-2.7,0.2
CCOC(=O)Cc1csc(NC(=O)C(NC(=O)C2CCCCC2)C(C)C)n1 (stereo unspecified),-4,-2,-5,0,10,2,2.6,-5,1.7,0.9
CCn1c(N)c(C(=O)Nc2ccccc2C(=O)OC)sc1=S,9,13,18,-13,.,.,.,-1,0.2,-0.6
O=C(Cc1ccccc1[N+](=O)[O-])Nc1nccs1,-17,-4,-6,1,9,5,2.7,-7,3.7,0.0
CCc1nnc(NC(=O)CCC(=O)N2CCC(Cc3ccccc3)CC2)s1,-3,11,3,13,-1,-21,3.1,6,5.9,-0.6
O=S(=O)(NCCn1cccc1)c1ccc2ccccc2c1,2,0,-3,2,-13,-16,-0.2,-9,0.3,0.7
CSc1nc(C)c(CCOCc2ccccc2)c(=O)[nH]1,-7,-4,13,-2,.,.,.,-3,-5.4,0.6
FC(F)(F)c1ccc(-c2nnc(-c3ccccn3)c(-c3ccccn3)n2)nc1,.,-13,-14,-12,-15,0,-1.3,3,1.3,0.2
O=c1c2ccccc2cnn1Cc1ccc(Cl)c(Cl)c1,-1,-13,-9,-9,0,-5,-1.3,-8,2.8,-0.7
NC(=O)N/N=C/c1ccc(N2CCOCC2)s1,.,-4,-1,-24,10,5,-2.3,2,-2.5,-0.6
C=C1CC2C3CC[C@@]4(OCOC45COCO5)[C@@]3(C)C(O)CC2[C@@]2(C)CCC(=O)C=C12 (stereo partly specified),.,11,-3,-4,.,.,.,0,-2.9,-0.7
CC(=O)N1CCN(S(=O)(=O)c2cccc(C(=O)Nc3ccc(C)cn3)c2)CC1,4,-6,-1,-6,3,5,-3.8,.,-15,-1.3
COc1ccc(NC(=O)CC2C(=O)N(C)C(=S)N2CCc2ccccc2)cc1 (stereo unspecified),-6,-4,4,-1,.,.,.,5,-2.5,-0.8
Cc1cccc(C(=O)OCN2C(=O)c3ccccc3C2=O)c1[N+](=O)[O-],-35,1,-7,19,-4,-10,0.3,-3,-18,0.6
Cc1ccc(NC(=O)C(OC(=O)c2ccc(NC(N)=O)cc2)c2ccccc2)cc1Cl (stereo unspecified),.,11,-4,0,-7,-25,27,-9,1.1,-0.1
CCOC(=O)c1c(OCC)[nH]c2ccc(O)cc12,87*,-6,-9,10,.,.,.,-3,2.5,-0.2
COCCN(Cc1cc2cc3c(cc2nc1Cl)OCO3)C(=O)Nc1ccc(F)cc1,-8,-2,-29,0,-27*,-15*,-4.4*,63,3.5,0.2
Cc1ccc(N(CC(=O)N2CCc3ccccc32)S(=O)(=O)c2cccs2)cc1,-1,-7,18,8,.,.,.,4,-4.3,0.1
# Other structures:
SMILES,ALR H2O2 inh,B2AR ag,T cruzi repl,Calb FLC,Ecoli rRNA inh,Ecoli rRNA inh OD600,Ecoli rRNA inh RFP,Beta apoptosis,LANA-H2A inh,Bfl-1 A1 inh
CS(=O)(=O)Nc1ccc(C(=O)Nc2ccc(S(=O)(=O)N3CCCC3)cc2)cc1,-22,8,-8,-7,-6,-5,-4.6,0,-8.0,0.1
Cc1nn(CC(=O)NCC(C)c2ccccc2)c(=O)c2cc3occc3n12 (stereo unspecified),2,-7,-1,1,2,0,0.4,-5,2.9,1.5
COc1ccccc1-c1cc(C(=O)N2CCN(c3ccccc3OC)CC2)no1,13,-5,30,3,-22,-25,18,4,2.0,0.0
Cc1cn2c(-c3ccc(Cl)cc3)nnc2s1,-10,-21,-8,-2,-13,-5,-3.5,5,-3.6,-0.2
CCOc1ccc(Nc2ncnc3c2cnn3C)cc1,-4,0,-14,-1,0,9,2.0,-1,-4.2,-0.8
CCOc1cc(NC(=S)Nc2cccc(OC)c2)c(OCC)cc1NC(=O)C1CC1,10,-2,7,-1,.,.,.,2,3.6,0.2
N#CCn1c(CCl)nc2ccccc2c1=O,-7,6,-1,47,15,3,-5.8,4,-1.0,0.1
O=[N+]([O-])c1cccc(/C=N/Nc2cc(Cl)nc(-c3ccccc3)n2)c1,-2,-4,20,4,.,.,.,14,-1.1,-0.7
O=C(Nc1cccc(NC(=O)c2cccc([N+](=O)[O-])c2)n1)c1cccc([N+](=O)[O-])c1,-15,-3,37,10,-18,-22,14,7,0.8,-0.1
CS(=O)(=O)N(Cc1ccccc1)c1ccc(C(=O)NCCSc2ccccn2)cc1,-3,-6,11,-13,9,19,6.0,5,11,-0.2
COc1ccc(C2C(C(=O)N3CCOCC3)=C(C)NC3=C2C(=O)CC(C)(C)C3)c(OC)c1 (stereo unspecified),-19,-4,-13,-36,.,.,.,.,-4.4,0.1
Cc1ccc(NC(=O)c2nc[nH]c2C(=O)N2CCCCC2)c(C(=O)c2ccccc2)c1,.,2,11,-11,.,.,.,3,.,0.3
COc1ccccc1NC(=O)CSC1=NC(=O)C(Cc2ccccc2)C(=O)N1 (stereo unspecified),99*,1,7,-2,-2,2,1.8,.,-3.2,0.0
Fc1ccc(COc2ccc(/C=N/n3cnnc3)cc2)cc1,-16,-5,19,27,.,.,.,-2,-2.2,-0.7
O=C(Nc1nnc(-c2ccco2)s1)C1CC1,-1,-8,-2,4,.,.,.,-6,-1.0,-0.6
O=C(CN1CCN(Cc2ccccc2)CC1)N/N=C/c1cccs1,-3,1,5,0,6,6,-0.3,.,0.8,0.6
Cc1cc([N+](=O)[O-])nn1CCCC(=O)NC1CCCCC1,.,-4,0,7,11,5,-2.3,-3,-3.6,0.7
CC(=O)c1ccc(OCC(O)CN(C)CCOc2ccc(Br)cc2)cc1 (stereo unspecified),-12,-10,46,-1,-6,-11,6.1,-1,3.4,0.4
C[n+]1c(-c2ccccc2)sc([S-])c1-c1ccccc1,-3,2,26,-4,-21,-30,7.4,5,-1.6,0.0

# Source: PubChem
